NPYLR7 ag: activates Aedes aegypti NPYLR7 receptor; 0.15% of 270,000 active; AID 1259423; activation, % at 10 µM; HEK293T NPYLR7/Galpha15, GCaMP6s calcium fluorescence; in the data active = activation above about 40%;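 also: 0% = vehicle and 100% = reference agonist at the receptor; some compounds past the cut are filed as inactive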
NPYLR7 ag max-min: second read-out of NPYLR7 ag, no call of its own (marks repeat the call); activation, %; measured here: Max-Min RFU normalised activation; some inactives read as strong as hits;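 span of the calcium signal over five minutes; 0% = vehicle and 100% = native peptide agonist; compound fluorescence can raise it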
* marks the source's active call; other numbers are inactive results; & = joins results of further samples. Some of the compounds tested; rates above refer to the full screens.

SMILES	NPYLR7 ag	NPYLR7 ag max-min
Cn1nnc2c(Nc3ccc(S(N)(=O)=O)cc3)ncnc21	17	7
OCc1cc(O)c2c(O)c3c(O)cccc3c(O[C@@H]3O[C@H](CO)[C@H](O)[C@@H](O)[C@H]3O)c2c1	4	9
O=C(Nc1cccc(Cl)c1-n1ccnc1)c1ccc(Cl)cc1Cl	6	2
CCc1nc(C)sc1CN1CCCC1c1nc2ccc(F)cc2[nH]1 (stereo not drawn)	3	4
CCCCSc1ncc(C2CC(=O)Nc3c2c(C)nn3C(C)C)cn1 (stereo not drawn)	7	3
O=C(O)C1=C[C@@H](O)[C@@H](O)[C@H](O)C1	-7	-12
CCOc1ccc2nc(-c3nccn3CC3CCN(C(C)=O)CC3)ccc2c1	18	3
CCOc1cc(S(=O)(=O)NC2CC(C)(C)NC(C)(C)C2)c(OCC)cc1C	8	6
O=C(NCc1ccc2c(c1)CCC2)C1CC1c1cccc(F)c1 (stereo not drawn)	4	3
COc1cccc(CNC(=O)C2CCN(C(=O)[C@@H](Cc3ccccc3)NC(=O)Nc3c(F)c(F)c(F)c(F)c3F)CC2)c1	36	25
CCOC(=O)c1nc2cc(C)c(C)cc2nc1N1CCN(S(=O)(=O)c2c(F)cccc2F)CC1	6	4
Cc1cccc(OC(C)C(=O)NC2(C)CCS(=O)(=O)C2)c1 (stereo not drawn)	5	3
CCc1c(C)nn(-c2ccc(C(=O)NC(c3ccccc3)c3ccccn3)cc2)c1C (stereo not drawn)	-10	-12
COc1ccc(CC(=O)OC(C(N)=O)c2ccccc2)c(OC)c1 (stereo not drawn)	0	-3
CCOC(=O)c1ccc(NC(=O)Nc2ccc(N3CCCCC3)c(C(=O)NC(C)c3ccccc3)c2)cc1 (stereo not drawn)	22	21
COc1ccc2[nH]c3c(c2c1)CCN(C(=O)c1cc(Cl)ccc1F)C3c1ccc(OCc2ccccc2)cc1 (stereo not drawn)	10	2
Nc1ccc(Br)cc1C(O)c1ccccc1Cl (stereo not drawn)	-1	-3
COc1cccc(C(=O)N(CCN2CCCCC2)Cc2csc(COc3ccccc3C(C)C)n2)c1	-7	4
CN1CC(=O)N=C1N	-6	-11
CS(=O)(=O)NCCNC(=O)c1ccc(OC(F)F)cc1	-13	-8

Single records (already shown). Values in the order: NPYLR7 ag, NPYLR7 ag max-min
Results for COc1ccc(CC(=O)OC(C(N)=O)c2ccccc2)c(OC)c1 (stereo not drawn) = 0, -3
Results for COc1cccc(CNC(=O)C2CCN(C(=O)[C@@H](Cc3ccccc3)NC(=O)Nc3c(F)c(F)c(F)c(F)c3F)CC2)c1 = 36, 25

Continuation:
SMILES	NPYLR7 ag	NPYLR7 ag max-min
O=S1(=O)CC(S(=O)(=O)Nc2ccccc2-c2cccs2)c2ccccc21 (stereo not drawn)	-1	-3
COc1ccc(-c2cc(C(=O)N(C)CCc3ccc(OC)c(OC)c3)c(C)n2-c2ccccc2Cl)cc1	-2	8
O=C(NC1CCCCNC1=O)c1cc(-c2ccccc2Cl)nc2cc(-c3ccccc3)nn12 (stereo not drawn)	17	28
Cc1cccc(NS(=O)(=O)c2cc(C(=O)Nc3ccccc3C(=O)O)ccc2C)c1	-4	-5
COc1ccc(Br)cc1C=CC(=O)N1CCCC1c1ccncc1 (stereo not drawn)	-6	-9
Cc1ccnc(C(NC(=O)c2nnc3nc(C)cc(C)n23)C2CC2)c1 (stereo not drawn)	13	10
COc1cn(CC(=O)NC2CCCC2)c(CN2CCC(C)CC2)cc1=O	0	-2
C=CCN1C(=O)NC(=O)/C(=C/c2ccc(OCc3ccc(Cl)cc3)c(OC)c2)C1=O	13	14
c1ccc(-n2nc(SCc3nc4ccccc4s3)nc2C2CC2)cc1	-1	1
CC1(C)[C@H]2CC=C(CN3CCc4nncn4CC3)[C@@H]1C2	11	2
COc1cn(CC(=O)Nc2ccccc2)c(CN2CCCCCC2)cc1=O	1	-2
O=C(c1ccc(N2CCC3(CC2)NCCNC3=O)nc1)N1CCCCC1	15	8
c1ccc(-n2cccn2)c(CNc2ncnc3c2CCNC3)c1	4	0
COC(=O)c1cn(Cc2ccco2)cc(C(=O)N2C[C@H]3CC=CC[C@H]3C2)c1=O	1	0
Cc1nn(-c2ccc(Cl)cc2)c(C)c1CC(=O)NCCN1CC(C)OC(C)C1 (stereo not drawn)	5	2
Fc1ccc(N=c2oc3ccccc3cc2-c2nc3ccccc3[nH]2)cc1	-4	-12
CCCOC1CCCN(Cc2nc(C3(c4ccc(C)cc4)CCCC3)no2)C1 (stereo not drawn)	6	1
CCCCC(CC)C(=O)N1CCC2(CC1)SCCN2C(=O)c1cccc(C)c1 (stereo not drawn)	-3	6
C=CCOCC(O)CN(Cc1ccc(F)cc1)Cc1ccc(C)cc1C (stereo not drawn)	26	37
Cn1ccc(NC(=O)COc2ccc(Cl)cc2Br)n1	-7	-9
CCOC(=O)N1CCN(Cc2ccc3c(c2)CN(C(=O)c2cc(-c4ccccc4)no2)CCO3)CC1	3	-1
Cc1nn(C)c(C)c1S(=O)(=O)NC(C)C(=O)N1CCn2cccc2C1C (stereo not drawn)	7	3
Cc1ccc(CNC(=O)CN(C2CCC(C)CC2)C2CCC(O)CC2)cc1 (stereo not drawn)	-5	-5
CCOC(=O)N1CCN(Cc2ccc3c(c2)CN(C(=O)c2sc(C)nc2C)CCO3)CC1	0	-7
N#CCN1CCc2ccc(NS(=O)(=O)c3ccc(C4CCCCC4)cc3)cc21	6	5
O=C(NC1COc2ccccc21)N(Cc1ccc(C(F)(F)F)cc1)C1CC1 (stereo not drawn)	0	41
CCOC(=O)CNC(=O)CSc1nc2c(c(=O)n1-c1cc(C)cc(C)c1)SCC2	-8	-14
O=C(N=C1N=C2C=CC(Br)=CN2Cc2ccccc21)c1ccc(-c2ccccc2)cc1	-4	-12
COC(=O)CNC1CCN(c2ccc(C(=O)NC3CCCC3)cc2)CC1	6	2
CC(=O)Oc1ccccc1CN1C(=O)C(C)(C)ON=C1c1ccc(C(F)(F)F)cc1	7	1
Cn1c(-c2c(N)n(Cc3ccc4c(c3)OCO4)c3nc(C#N)c(C#N)nc23)nc2ccccc21	3	7
O=C(O)c1cccc(S(=O)(=O)Nc2ccc(Cl)c(S(=O)(=O)N3CCCC3)c2)c1	-1	24
Cc1ccc2nc(CSc3nnc(-c4cccnc4)o3)cc(=O)n2c1	0	3
CN(C)C(C(=O)N1CCC(C(=O)NCc2cccnc2)CC1)c1cc(Cl)cc(Cl)c1 (stereo not drawn)	2	1
COc1ccc(OC)c(N2CCN(C(=O)c3cccs3)C(C)C2=O)c1 (stereo not drawn)	-2	1
CC1(C)CC(C)(c2ccccc2)SC(c2ccccc2)=N1 (stereo not drawn)	-3	25
CCCCCC(=O)N/N=C(/C)Cn1nc([N+](=O)[O-])cc1C	0	-1
CCOc1ccc(-n2nnnc2CNC(=O)c2ccc3ccccc3c2)cc1	1	1
CC1CCC(C(C)C)C(OC(=O)Cn2ccsc2=N)C1 (stereo not drawn)	2	3
O=C(c1cccc(Cl)c1)N1CCc2ccccc2C1c1ccc(Cl)cc1 (stereo not drawn)	22	7
Cc1noc(C)c1COc1ccc2ccc(=O)oc2c1	-3	-8
COc1ccc(CCN2CCCC(CN(C)Cc3ccc4cc(F)ccc4n3)C2)cc1 (stereo not drawn)	12	2
COC(=O)COc1ccc(/C=C2\C(=O)NC(=S)N(c3ccc(OC)cc3)C2=O)cc1OC	-8	-14
COc1cccc(Cn2cccc2CN(Cc2ccccc2)C(=O)CN(C(=O)COCc2ccccc2)C(C)C)c1	18	16
O=C(NCc1nc2ccccc2n1CCCCOc1ccccc1)c1ccco1	0	-5
CC(C)N1CCc2[nH]c(=S)[nH]c(=O)c2C1	-8	-9
O=C(/C=C/c1ccccc1)N1CCC(c2nc(-c3cccnc3)ncc2-c2ccccc2)CC1	19	6
COc1ccc(/C=C/CN2CCC(C(=O)NC(c3ccccc3)c3ccsc3)CC2)cc1 (stereo not drawn)	-9	-12
COc1cc(C)c2c(c1C=O)Oc1c(c(C)c(O)c3c1C(O)OC3=O)OC2=O (stereo not drawn)	-13&4	-17&2
CC(=O)c1cccc(Nc2ncnc3ccc(C)cc23)c1	-3	-3
Cc1cc(CS(=O)(=O)N(Cc2ccc(C(C)C)cc2)C2CC2)on1	12	10
Cc1ccc2nc(-c3ccccc3)[nH]c2c1	2	7
CC(=O)N1CCc2cc(NC(=O)C3(C)CCN3Cc3ccc(C)cc3)ccc21 (stereo not drawn)	2	-1
CN(c1ccccc1)N1CC(C(=O)Nc2cccc(C(F)(F)F)c2)CC1=O (stereo not drawn)	-4	-8
COCC(=O)Nc1c(-c2cccc(F)c2)nc2cc(C)ccn12	-4	2
Cc1nc(N2CCC(C(=O)NCc3ccc(N4CCOCC4)cc3)CC2)nc2ccc(C(C)C)cc12	12	-1
CN(C(=O)c1csc(-c2cccs2)n1)C1CCCN(CCc2ccccc2)C1 (stereo not drawn)	11	3
Brc1ccccc1OCc1nc2ccccc2[nH]1	-3	-3
CCCCN(CC(=O)N(Cc1cccn1Cc1ccccc1Cl)CC(C)C)C(=O)c1cccc(Br)c1	-1	8
N#CC(=Cc1ccc(F)cc1F)c1nnc2n1CCCCC2	4	1
Continuation:
SMILES	NPYLR7 ag	NPYLR7 ag max-min
FC(F)Oc1ccc(C=NN2CCOCC2)c(OC(F)F)c1	7	3
CN1CCN(n2c3c(c(SCC(=O)N4CCCc5ccccc54)nc2=O)CCCC3)CC1	-4	-10
O=C(CSc1nnc(NC(=O)c2cccs2)s1)Nc1nccs1	7	13
CCc1nc2oc3cc(OC)ccc3c(=O)c2c(=O)n1Cc1ccccc1	5	2
Cc1oc(-c2cccc(Cl)c2)nc1CN1CCC(N(C)C)CC1	2	0
COc1ccc(NC(=O)c2sc(=O)n(Cc3cc(C)cc(C)c3)c2C)cc1OC	-6	-8
CC(C)NC(=O)COc1ncnc2sc3c(c12)CCCC3	5	3

Structures from the list above containing an aryl methoxy group (17):
SMILES	NPYLR7 ag	NPYLR7 ag max-min
COc1cccc(CNC(=O)C2CCN(C(=O)[C@@H](Cc3ccccc3)NC(=O)Nc3c(F)c(F)c(F)c(F)c3F)CC2)c1	36	25
COc1ccc(CC(=O)OC(C(N)=O)c2ccccc2)c(OC)c1 (stereo not drawn)	0	-3
COc1ccc2[nH]c3c(c2c1)CCN(C(=O)c1cc(Cl)ccc1F)C3c1ccc(OCc2ccccc2)cc1 (stereo not drawn)	10	2
COc1cccc(C(=O)N(CCN2CCCCC2)Cc2csc(COc3ccccc3C(C)C)n2)c1	-7	4
COc1ccc(-c2cc(C(=O)N(C)CCc3ccc(OC)c(OC)c3)c(C)n2-c2ccccc2Cl)cc1	-2	8
COc1ccc(Br)cc1C=CC(=O)N1CCCC1c1ccncc1 (stereo not drawn)	-6	-9
COc1cn(CC(=O)NC2CCCC2)c(CN2CCC(C)CC2)cc1=O	0	-2
C=CCN1C(=O)NC(=O)/C(=C/c2ccc(OCc3ccc(Cl)cc3)c(OC)c2)C1=O	13	14
COc1cn(CC(=O)Nc2ccccc2)c(CN2CCCCCC2)cc1=O	1	-2
COc1ccc(OC)c(N2CCN(C(=O)c3cccs3)C(C)C2=O)c1 (stereo not drawn)	-2	1
COc1ccc(CCN2CCCC(CN(C)Cc3ccc4cc(F)ccc4n3)C2)cc1 (stereo not drawn)	12	2
COC(=O)COc1ccc(/C=C2\C(=O)NC(=S)N(c3ccc(OC)cc3)C2=O)cc1OC	-8	-14
COc1cccc(Cn2cccc2CN(Cc2ccccc2)C(=O)CN(C(=O)COCc2ccccc2)C(C)C)c1	18	16
COc1ccc(/C=C/CN2CCC(C(=O)NC(c3ccccc3)c3ccsc3)CC2)cc1 (stereo not drawn)	-9	-12
COc1cc(C)c2c(c1C=O)Oc1c(c(C)c(O)c3c1C(O)OC3=O)OC2=O (stereo not drawn)	-13&4	-17&2
CCc1nc2oc3cc(OC)ccc3c(=O)c2c(=O)n1Cc1ccccc1	5	2
COc1ccc(NC(=O)c2sc(=O)n(Cc3cc(C)cc(C)c3)c2C)cc1OC	-6	-8

Bioassay records: PubChem, Fisher Drug Discovery Resource Center
